D2 agonist = activates the human D2 dopamine receptor | P14416 | DiscoveRx PathHunter D2 beta-arrestin, luminescence, 90 min; 100% = 57 uM dopamine signal | activation, % (no concentration beside the values) | actives 0.084% (n = 360,000); in the data active = activation above about 40%; inconclusive = about 15% to 40%; inactive = below about 15%; further: compound concentration not given in the record; the text of the record calls up to 30% inactive
Target sequence (P14416 whole entry, looked up): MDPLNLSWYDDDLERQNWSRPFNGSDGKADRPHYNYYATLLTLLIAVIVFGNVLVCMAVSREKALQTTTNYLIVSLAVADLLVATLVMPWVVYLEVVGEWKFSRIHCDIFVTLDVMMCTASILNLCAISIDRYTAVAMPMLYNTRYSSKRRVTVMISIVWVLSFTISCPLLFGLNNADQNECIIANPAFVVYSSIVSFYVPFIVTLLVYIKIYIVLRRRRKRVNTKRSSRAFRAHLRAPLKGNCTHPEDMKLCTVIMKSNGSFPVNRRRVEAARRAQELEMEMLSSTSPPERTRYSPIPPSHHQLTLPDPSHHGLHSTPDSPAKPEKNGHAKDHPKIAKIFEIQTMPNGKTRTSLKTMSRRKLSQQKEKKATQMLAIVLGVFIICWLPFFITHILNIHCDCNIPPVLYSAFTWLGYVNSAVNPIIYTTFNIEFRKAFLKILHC
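DiscoveRx PathHunter D2 beta-arrestin cells (2,100/well) attached overnight, then compound-stimulated 90 min at 37 C in HBSS/10 mM HEPES/0.1% Tween-20 buffer; beta-galactosidase complementation read by luminescence after 1 h at ambient temperature. Dopamine 57 uM final (EC100) as control.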
Six1-Eya2 inh = inhibitors of human Six1/Eya2 interaction. Q15475+O00167. AlphaScreen GST-Six1/His-Eya2 binding, biochemical; stronger effect = lower value; control for the full effect not named in the record. activity change, % (no concentration beside the values). actives 0.56% (n = 360,000). AID 651725; in the data active = activity change below about -65%; inconclusive = about -30% to -65%; inactive = above about -30%; further: on the % scale 0 is the no-effect control and ±100 the full control effect; compound concentration not given in the record
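Compounds are tested against tagged Six1 and Eya2 proteins bridged by glutathione donor and nickel acceptor beads; after a one-hour incubation at 37 °C without light, AlphaScreen emission is recorded.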
PINK1 modulator = modulators of PINK1 expression. PINK1 immunofluorescence, high-content cytometry, 24 h. Potency, µM (doses to about 76.6 µM), for the others: at the highest dose activation (PINK1 increase), most hits filed as activators. actives 0.2% (n = 410,000); active = well fitted activation curve with a large enough effect; inconclusive = small, poorly fitted or top-dose-only effect; inactive = flat fitted curve, though single readings scatter; cell line not stated here;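 further: potency means the concentration at half of the fitted maximal effect; % of control where 0% means no effect; nearly all actives have a fitted effect of over 65% in size; a mitochondrial uncoupler was the plate control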
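Cells are seeded, rested 12 hours, then given compound at five concentrations or DMSO for 24 hours. After fixation, blocking and antibody staining, PINK1 amount and mitochondrial localization are scored; CCCP serves as control.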
TRPML1 agonist = activates the human TRPML1 channel; Q9GZU1; TRPML1-expressing cells, Ca2+ dye fluorescence, FDSS; host cell line not named in the record; reference of the full effect not given here; activation, % (concentration not given with the values); actives 0.12% (n = 410,000); AID 624414; in the data active = activation above about 50%; inconclusive = about 30% to 50%; inactive = below about 30%; further: 0% is about no effect; the text of the record puts the active cut at 80%
Target sequence (Q9GZU1 whole entry, looked up): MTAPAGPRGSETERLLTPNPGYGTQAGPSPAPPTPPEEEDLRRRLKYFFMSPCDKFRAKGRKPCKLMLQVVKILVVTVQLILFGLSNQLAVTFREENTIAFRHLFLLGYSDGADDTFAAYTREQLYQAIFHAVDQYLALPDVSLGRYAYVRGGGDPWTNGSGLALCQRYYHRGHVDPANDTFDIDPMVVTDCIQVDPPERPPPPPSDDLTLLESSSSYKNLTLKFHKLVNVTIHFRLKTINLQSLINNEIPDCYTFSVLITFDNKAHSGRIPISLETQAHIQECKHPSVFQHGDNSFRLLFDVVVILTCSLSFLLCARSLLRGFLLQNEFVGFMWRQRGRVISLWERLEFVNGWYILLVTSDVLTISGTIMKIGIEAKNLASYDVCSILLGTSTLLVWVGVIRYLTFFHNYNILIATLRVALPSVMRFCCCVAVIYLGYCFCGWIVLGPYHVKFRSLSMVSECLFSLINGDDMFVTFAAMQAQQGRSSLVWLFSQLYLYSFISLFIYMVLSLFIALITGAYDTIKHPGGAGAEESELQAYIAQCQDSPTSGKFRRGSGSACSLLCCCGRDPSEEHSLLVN
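Agonist activity was taken from a 110 s kinetic Ca2+ dye read on the FDSS after pinning compounds onto TRPML1-DL cells. The cells were seeded at 1,500/well with Tet inducer, incubated about 16 h, then dye-loaded at room temperature.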
D2 PAM = positive allosteric modulators of human D2 dopamine receptor; DiscoveRx D2 beta-arrestin cells, luminescence, 90 min; 100% = 57 uM dopamine signal; potentiation, % (no concentration beside the values); actives 0.23% (n = 360,000); active = potentiation of 50% or more; inconclusive = 30% to 50%; inactive = 30% or less;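 further: compound concentration not given in the record; tested on top of an EC20 dose of dopamine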
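PathHunter beta-arrestin assay in DiscoveRx D2 cells. Compounds were added with an EC20 of dopamine (50 nM final) for 90 min at 37 deg C. Luminescence was read 1 h after detection reagent, with 57 uM dopamine as the EC100 control.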
TRPML1 blocker = blocks the human TRPML1 channel; actives 0.02% (n = 390,000); TRPML1-inducible cells, Ca2+ dye fluorescence, FDSS; stronger effect = lower value; inhibition of EC80 agonist-evoked calcium signal; AID 624415; activity change, negative = inhibition, % (concentration not given with the values); Q9GZU1; in the data active means activity change below about -50%; inconclusive means about -30% to -50%; inactive means above about -30%;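 further: stimulus is agonist 54-4 at its EC80 concentration; on the % scale 0 is the no-effect control and ±100 the full control effect; compound concentration not given in the record; the text of the record puts the active cut at -80%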
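Tet-induced TRPML1-DL cells loaded with Ca8 no-wash calcium dye were read kinetically on FDSS. Compound addition was followed by EC80 agonist 54-4 (4 uM final); inhibition was read over 110 s.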
Starred values were filed as active, the others as inactive; ? = inconclusive; / = no result given; [ ] = another dose, or the depositor's remark.

SMILES | D2 agonist | Six1-Eya2 inh | PINK1 modulator | TRPML1 agonist | D2 PAM | TRPML1 blocker
COc1ccc(/C=N/NC(=O)Cn2c(Cc3ccc(OC)c(OC)c3)nc3ccccc32)cc1OC | 0.1 | -18 | 0.0% | 0.8 | -13 | 29
COc1ccc(S(=O)(=O)N/N=C(/C)c2ccc(C)o2)cc1 | -3.0 | 2 | -0.5% | 1.3 | -7 | 3
CC(C)(C)C(=O)CNS(=O)(=O)c1ccc(S(=O)(=O)NC2CCCC2)cc1 | -1.6 | -1 | / | 3.1 | 10 | 9
O=C1Cc2cc(NS(=O)(=O)c3ccc([N+](=O)[O-])cc3)cc3c2N1CCC3 | 0.2 | -4 | 5.8% | 0.0 | 20 | 23
O=C(CN1CCN(Cc2ccccc2)CC1)NCc1ccccc1Cl | -3.8 | 0 | 0.2% | 0.8 | -4 | -7
CCCN1C(=O)c2ccccc2NC1c1ccc(Cl)c(Cl)c1 (configuration not stated) | -0.5 | 4 | 0.4% | 3.1 | -2 | 19
Cc1ccc(N2C(=O)NC3(CCCCC3)C2=O)cc1 | -4.7 | 1 | 1.4% | -0.4 | 2 | 9
CC1(C(=O)Nc2ccc(Cl)c(C(F)(F)F)c2)Cc2c(-c3ccc4c(c3)OCO4)ccnc2O1 (configuration not stated) | -1.6 | 0 | 4.9% | 0.2 | -1 | /
COc1cccc(NC(=O)c2ccc(NCCCN3CCC(C)CC3)c([N+](=O)[O-])c2)c1 | 0.2 | -11 | 8.9% | -0.2 | -19 | 1
COc1cc(/C=C/C(=O)Nc2cc(C(F)(F)F)ccc2Cl)cc(OC)c1OC | -1.0 | 1 | 0.2% | 0.5 | -1 | 1
O=C(Nc1ccc(C(=O)N2CCCc3ccccc32)cc1)c1cccs1 | 3.5 | -1 | -1.1% | 1.0 | -10 | -5
O=C(Cn1nnc2ccccc2c1=O)N1CCCc2ccccc21 | 1.7 | 2 | 1.2%[38.3 µM] | -0.5 | 1 | -8
COCC(C)n1c(C)cc(C(=O)COC(=O)c2nc3nc(C)cc(C)n3n2)c1C (configuration not stated) | 0.2 | -5 | -0.7% | -0.7 | -7 | 3
CC(/C=C/c1ccco1)=N/NC(=O)Cc1cccs1 | -1.5 | -6 | -1.4% | -0.5 | -18 | 11
COc1ccccc1N1CCN(Cc2nc3ccccc3c(=O)n2CC(C)=O)CC1 | -1.2 | 17 | 0.4% | -0.2 | 5 | 5
O=C(O)CCC1(CCC(=O)O)CCCC(CCC(=O)O)(CCC(=O)O)C1=O | 1.8 | 5 | 0.2% | -0.7 | 9 | 3
COc1nc(Cl)cn(-c2ccc(Cl)cc2)c1=O | -4.8 | 9 | -0.6% | 0.1 | -7 | 18
NC(=O)c1oc2ccc(Cl)cc2c1N | -3.4 | -1 | -1.3% | -0.3 | -10 | 3
CCc1nnc(NC(=O)C2Cc3ccccc3CN2S(=O)(=O)c2cccs2)s1 (configuration not stated) | 0.9 | -22 | -1.4% | 2.2 | 12 | -12
Cc1ccc(C)c(CN2C(=O)C3(c4ccccc42)N(c2cccc(C(F)(F)F)c2)C(=O)CS3(=O)=O)c1 (configuration not stated) | / | / | 1.2% | 0.0 | / | 0
COC(=O)[C@]1(C)N[C@H](CN(C)C(=O)Nc2ccccc2)[C@@H]2C(=O)N(Cc3ccccc3)C(=O)[C@@H]21 | -2.7 | 6 | -1.2% | -0.4 | / | 21
CN(C)S(=O)(=O)NCc1ccc2c(c1)OCO2 | -1.2 | 7 | 0.2% | -0.1 | -3 | -19
Cc1cccc(-c2cnc(C(O)c3cc(C)cc(C)c3)[nH]2)c1 (configuration not stated) | -5.8 | -8 | 6.0% | 4.9 | -13 | /
O=c1[nH]c(C2CCN(S(=O)(=O)c3ccc(F)cc3)CC2)nc2c1nnn2Cc1ccc2c(c1)OCCO2 | 1.1 | 4 | 1.2% | 0.7 | 2 | -4
CCOc1ccc(NC(=O)Cn2cnc3c(oc4ccccc43)c2=O)cc1 | / | / | 0.7% | -0.5 | / | 5
Cc1nn(CCC#N)c(NC(=O)c2ccc(Cl)cc2Cl)c1P(=O)(Nc1ccc([N+](=O)[O-])cc1)N1CCOCC1 (configuration not stated) | -0.2 | -1 | 3.8%[38.3 µM] | 0.4 | -8 | 0
CCOc1ccc(Oc2nc(N(CC)CC)nc(N3CCOCC3)n2)nn1 | -7.0 | 3 | 3.7% | -1.1 | 3 | 6
CCCN(CCC)c1nc(NC2CCN(C(=O)OCC)CC2)nc(OC)n1 | -0.3 | -27 | -3.1% | 0.5 | -29 | 17
CC(C)(C)C1CCC(C(=O)OCC(=O)N2CCN(C(=O)c3ccco3)CC2)CC1 (configuration not stated) | -4.5 | -4 | 4.2% | -0.6 | 3 | 5
CCCC(=O)N1CCCC1(C)C(=O)Nc1cc(OC)ccc1OC (configuration not stated) | -4.0 | 9 | -0.1% | -0.6 | 2 | /
CC1CCN(Cc2ccc(-c3nnn(CC(=O)Nc4ccccc4Cl)n3)cc2)CC1 | -1.9 | -2 | 2.1% | 0.2 | -16 | -1
CCCN1Cc2cccc(C(=O)N3CCN(c4ccc(F)cc4)CC3)c2C1=O | -2.4 | 1 | -2.7% | 0.4 | -26 | 29
CSCCC(NS(=O)(=O)c1ccc2ccccc2c1)C(=O)OCC(=O)c1ccc(C(C)C)cc1 (configuration not stated) | 1.8 | -4 | -1.4% | 2.2 | 3 | 0
O=C(C1=C(O)C(=O)N(c2ccccc2)C1c1ccc([N+](=O)[O-])cc1)c1cccs1 (configuration not stated) | -1.0 | -12 | 1.1% | -0.6 | -4 | 3
N#Cc1c(-c2ccc3c(c2)OCO3)cc[nH]c1=O | -4.9 | 1 | 1.1% | 1.5 | -7 | -1
c1coc(Cn2c(SCc3nc4ccccc4[nH]3)nnc2-c2cccs2)c1 | -0.9 | -12 | 20%[38.3 µM] | 1.3 | -18 | 1
Cc1ccc(C)c(CSC2=NC(C)(C)Nc3ccccc32)c1 | / | / | 0.4% | 0.5 | / | -3
Cc1ccc(OCc2cc(C(=O)NCC3COCCO3)no2)cc1C (configuration not stated) | -2.4 | -1 | 7.4% | -0.1 | -16 | 12
CN(C(=O)COC(=O)c1ccccc1NC(=O)c1ccco1)C1CCS(=O)(=O)C1 (configuration not stated) | -2.5 | 0 | 0.9% | -0.3 | -2 | -8
CC(C)c1ccc(NC(=O)Cn2c(=O)oc3ccccc32)cc1 | -5.5 | 13 | 1.2% | 1.5 | -6 | -24

2 successive compounds from above:
SMILES | D2 agonist | Six1-Eya2 inh | PINK1 modulator | TRPML1 agonist | D2 PAM | TRPML1 blocker
COc1ccc(/C=N/NC(=O)Cn2c(Cc3ccc(OC)c(OC)c3)nc3ccccc32)cc1OC | 0.1 | -18 | 0.0% | 0.8 | -13 | 29
COc1ccc(S(=O)(=O)N/N=C(/C)c2ccc(C)o2)cc1 | -3.0 | 2 | -0.5% | 1.3 | -7 | 3

Next part.
SMILES | D2 agonist | Six1-Eya2 inh | PINK1 modulator | TRPML1 agonist | D2 PAM | TRPML1 blocker
O=C(COc1ccccc1)NCC(=O)Nc1ccncc1 | 2.9 | 4 | -1.4% | 0.4 | -16 | 19
O=[N+]([O-])c1ccc(Oc2ccc(-c3cnc4ccccc4n3)cc2[N+](=O)[O-])cc1 | 1.6 | -3 | 12% | 1.4 | 12 | 69
CC(C)c1cc(CNC(=O)CCc2nnc(CCCCc3ccccc3)o2)on1 | 5.5 | -1 | 0.0% | 0.8 | -4 | -8
O=C(N/N=C/c1ccc2c(c1)OCO2)C1COc2ccccc2O1 (configuration not stated) | -2.7 | -7 | 3.5%[38.3 µM] | -0.2 | 4 | 18
O=C1C=C(c2ccccc2)OC2(CCCC2)O1 | -2.7 | 4 | / | -0.3 | -3 | 0
COc1ccccc1C1C(C(=O)c2sc(C)nc2C)=C(O)C(=O)N1CCN1CCOCC1 (configuration not stated) | -2.2 | -1 | -1.5% | 0.5 | -8 | -4
Cc1ccc(S(=O)(=O)Nc2cccc(C(=O)NCCN3CCOCC3)c2)cc1F | -6.2 | -1 | -0.1% | 2.4 | -1 | 21
COc1ccc(CNC(=O)C2=C(C)C(=O)OC23CCN(C(C)=O)CC3)cc1 | / | / | -0.2% | 1.4 | / | 4
CC(OC(=O)c1ccc2ncsc2c1)C(=O)N(C)C1CCCCC1 (configuration not stated) | -2.2 | -4 | 0.3% | 0.9 | -8 | 11
COc1ccc(C(=O)NCC(=O)OCC(=O)c2cc(OC)c(OC)c(OC)c2)cc1OC | -3.0 | -8 | 0.0% | 0.5 | -1 | 25
COc1ccc(Oc2nc(-c3ccccn3)nc3ccccc23)cc1 | 4.8 | -86* | -1.3% | -0.6 | -8 | 5
COc1ccc([C@@H]2CC=C(C(=O)O)[C@H](c3cccc(Cl)c3)N2S(=O)(=O)c2ccc(C)cc2)cc1OC | 0.5 | 5 | 1.7% | -0.3 | 2 | -13
COC(=O)c1cn(NC(=O)Cc2ccc(OC)c(OC)c2)c(=O)c2ccccc12 | -0.5 | -5 | 0.0% | 0.1 | -4 | -6
CCOC(=O)N/N=C/c1cccnc1 | -0.1 | -2 | -1.2% | 1.4 | -16 | -11
Cc1cccc(/C=N/N(CCO)C2=NS(=O)(=O)c3ccccc32)c1 | 2.2 | ? | -2.2% | 4.2 | 13 | 10
COCCCNCC#CCOc1ccc(OC)cc1 | -9.7 | 2 | -0.3% | 0.3 | -6 | -23
CC(SC(C)C(=O)NN=Cc1cccc(Cl)c1)C(=O)NN=Cc1cccc(Cl)c1 (configuration not stated) | -0.4 | -4 | 12% | -0.2 | -7 | -3
CC(=O)c1ccc(OC(C)C(=O)OCC(=O)NCCc2ccccc2)cc1 (configuration not stated) | 0.7 | 8 | 1.1% | 2.1 | 7 | ?
Cc1cccc(OCc2nc(CC(=O)Nc3ccc(C)cc3C)cs2)c1 | / | / | 0.2% | 1.6 | / | -14
O=S1(=O)CCN2C(c3cccc4ccccc34)=CSC2=N1 | -2.1 | 6 | 0.1% | 0.1 | -2 | 28
CCn1nc(C)c(CCN(C)C(=O)Nc2cc(Cl)c(OC)cc2OC)c1C | / | / | 0.3% | -1.0 | / | -6
CCC(Oc1ccccc1)C(=O)N(CC)CC(=O)NCc1ccc(F)cc1 (configuration not stated) | 1.7 | 0 | -0.1% | -0.1 | -5 | 4
O=C(COc1ccc(F)cc1)Nc1ccc(OCc2cc(=O)n3ccsc3n2)cc1 | / | / | 0.7% | -0.3 | / | -15
Cc1ccc(CCNC(=O)CCS(=O)(=O)c2ccc(Br)cc2)cc1 | 2.1 | 9 | -0.3% | 0.1 | -6 | 28
O=C(CCNS(=O)(=O)c1ccccc1)OCc1nc2ccsc2c(=O)[nH]1 | 1.5 | -3 | 1.2% | -1.0 | -10 | 13

Whole records, looked up by structure. Screens in order: D2 agonist | Six1-Eya2 inh | PINK1 modulator | TRPML1 agonist | D2 PAM | TRPML1 blocker
`CCC(Oc1ccccc1)C(=O)N(CC)CC(=O)NCc1ccc(F)cc1` (configuration not stated) is entered as 1.7 | 0 | -0.1% | -0.1 | -5 | 4
`Cc1ccc(CCNC(=O)CCS(=O)(=O)c2ccc(Br)cc2)cc1` is entered as 2.1 | 9 | -0.3% | 0.1 | -6 | 28
`O=C(CCNS(=O)(=O)c1ccccc1)OCc1nc2ccsc2c(=O)[nH]1` is entered as 1.5 | -3 | 1.2% | -1.0 | -10 | 13

Compound activity deposited in PubChem by National Center for Advancing Translational Sciences (NCATS).
